Hsc70 = Hsc70 inhibitors, probe displacement, primary screen, biochemical, fluorescence polarization (AID 568); displacement, % at 20 µM; hits with a dose series show IC50 in µM; Hsc70 fluorescence polarization, probe displacement; higher % means a stronger effect; strong numbers were not always called active; 83,000 tested, under 10 active;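 active = displacement above 50% without optical interference and an IC50 on retest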;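 note: ATPase domain with a fluorescein-tagged ATP probe; 0% = vehicle and 100% = excess ADP; read after one hour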
WNV NS2B-NS3 inh = blocks West Nile virus NS2B-NS3 protease activity | z-score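 (tested at a level between 10 and 100 µM)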 | 0.18% of 65,000 active | AID 577 | P06935 | WNV NS2B-NS3 protease, fluorogenic substrate Ex360/Em465; active compounds read low;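 active = z-score at -3 or under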;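 note: score is relative to mean and spread of the compound wells of a plate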
Target sequence (P06935 1371-1501 limits assumed): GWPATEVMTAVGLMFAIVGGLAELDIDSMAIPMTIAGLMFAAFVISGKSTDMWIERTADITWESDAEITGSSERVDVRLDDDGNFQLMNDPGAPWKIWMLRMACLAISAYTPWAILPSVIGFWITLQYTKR
Target sequence (P06935 1502-1679 limits assumed): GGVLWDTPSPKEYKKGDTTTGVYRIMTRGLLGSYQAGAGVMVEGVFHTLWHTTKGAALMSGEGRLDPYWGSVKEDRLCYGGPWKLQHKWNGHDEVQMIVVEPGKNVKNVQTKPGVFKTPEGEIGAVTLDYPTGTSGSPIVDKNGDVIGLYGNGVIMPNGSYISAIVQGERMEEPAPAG
MT1-MMP promoter = inhibitors of MT1-MMP promoter transcription, cell-based, luciferase reporter, luminescence (AID 618); MT1-MMP promoter luciferase reporter cells, luminescence; calls from a first round at 10 µM; hits with a dose series show EC50 in µM; 0.62% of 87,000 active;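 active = over half of the reporter light lost at 10 µM or EC50 under 50 µM; inactive = the rest and hits that failed the dose series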;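 note: actives suppress MT1-MMP promoter-driven transcription so potencies describe inhibitors; HT1080 fibrosarcoma cells; overnight exposure; toxic or luciferase-blocking compounds were not removed from the actives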
Active calls of the source: *; i = inactive; / = not tested or not shown.

cpd	structure	Hsc70	WNV NS2B-NS3 inh	MT1-MMP promoter
1	CCOC(=O)C1CCCN(c2c(N3CCN(c4ccccn4)CC3)c(=O)c2=O)C1 (stereo not given)	-1.8%	-0.53	i
2	FC(F)(F)c1nnc2ccc(N3CCCCCC3)nn12	-7.2%	-0.23	i
3	O=C(NOC(=O)c1cc(Br)ccc1Cl)c1cccs1	4.4%	/	i
4	COc1cccc(Cn2c(Oc3cccc(C)c3)nc3c2c(=O)n(C)c(=O)n3C)c1	5.7%	-1.1	i
5	COc1ccccc1OCCOc1ccc(/C=N/n2cnnc2)cc1	-0.7%	2.8	i
6	Cc1c(C(=O)N2CCc3ccccc3C2)sc2nc(-c3ccccc3)cn12	4.0%	0.93	i
7	Cc1nc2cc(Cl)ccc2n1-c1ccccc1	2.4%	/	i
8	Cc1nn(-c2ccccc2)c2[nH]c(C(F)(F)F)cc(=O)c12	0.9%	0.18	i
9	O=C(O)c1oc2ccccc2c1-n1cccc1	14%	0.35	i
10	COc1ccc(COn2c(=O)c(C)[n+]([O-])c3ccccc32)cc1OC	-1.5%	1.1	i
11	COc1cccc(CNc2ccc3c(c2)ncn3C(C)C)c1OC	1.6%	-2	i
12	Cc1ccc(S(=O)(=O)NCC2CCC(C(=O)NCCCOC(C)C)CC2)cc1 (stereo not given)	-2.3%	/	i
13	O=C(NC1CC1)c1ccc(F)cc1Cl	-2.3%	/	i
14	COc1cccc(NS(=O)(=O)c2ccc(NC(C)=O)cc2)c1	0.9%	-0.63	i
15	Cc1ccc(S(=O)(=O)N[C@@H](C)C(=O)N2CCC(C(=O)N3CCC[C@H]3C(=O)O)CC2)cc1	-1.3%	0.07	i

Following part:
cpd	structure	Hsc70	WNV NS2B-NS3 inh	MT1-MMP promoter
16	O=C1CN(Cc2ccccc2)C(=NCc2ccco2)S1	-3.7%	0.75	i
17	O=C(Nc1ccccc1)N(CCCN1CCOCC1)Cc1cc2cc3c(cc2[nH]c1=O)OCCO3	0.9%	-0.07	i
18	Cc1cc2nc(NC3=NCN(CCCN4CCOCC4)CN3)nc(C)c2cc1C	0.5%	1.2	i
19	CN(Cc1ccccc1)Cc1nc2c(c(=O)n(C)c(=O)n2C)n1Cc1ccc(F)cc1	-6.2%	0.73	i
20	CC(O)(C#CCN1CCOCC1)c1ccccc1 (stereo not given)	5.7%	-0.94	i
21	CCCCCCOc1ccc(C(CC(=O)O)C(N)=O)cc1 (stereo not given)	-13%	2.1	i
22	COc1cccc(C(=O)N2CCN(c3ncccn3)CC2)c1	-0.7%	-1.2	i
23	Cc1ccc(NC(=O)CSc2nnc(-c3cccnc3)n2-c2ccc(C)cc2)cc1	-4.7%	/	i
24	CCCCc1ccc(NC(=O)C2CCCO2)cc1 (stereo not given)	1.4%	-0.56	i
25	Cc1ccnc(N2CCC(C(=O)Nc3ccc4c(c3)CCC4)CC2)n1	-2.3%	-0.64	i
26	COc1ccccc1NC(=O)C1(C)Cc2ccccc2C(=O)O1 (stereo not given)	2.0%	0.87	i
27	Fc1ccc(CSc2nncn2NCc2ccccc2)cc1	3.3%	/	i
28	CC(C)CNC(=O)c1cc(-c2ccc(Cl)c(Cl)c2)on1	1.9%	1	i
29	CNc1cc(C)nc(-n2nc(C)cc2C)n1	0.8%	1.1	i
30	COCCCn1c(SCC(=O)Nc2nc3ccccc3s2)nnc1-c1ccoc1C	7.4%	/	i

The results go on:
cpd	structure	Hsc70	WNV NS2B-NS3 inh	MT1-MMP promoter
31	O=C1[C@@H]2CSCN2C(=O)CN1CCc1cccc(F)c1	0.9%	-0.33	i
32	CCCCn1nnnc1SCC(=O)c1ccc(C)c(C)c1	-7.5%	1.4	i
33	CCOC(=O)c1cccnc1SCc1cc(=O)n2ccccc2n1	1.7%	-1.1	i
34	O=C(NCc1ccccc1)C1CCN(S(=O)(=O)c2cccc3cccnc23)CC1	1.6%	-0.21	i
35	Cc1ccc(C(c2sc3nc(C)nn3c2O)N2CCN(C(=O)c3ccco3)CC2)cc1 (stereo not given)	0.3%	-0.87	i
36	COCc1cc(=O)n2[nH]c(C(F)(F)F)nc2n1	2.5%	/	i
37	CCOC(=O)CSc1ncnc2c1nnn2-c1ccc(F)cc1	7.6%	-0.44	i
38	CSc1nc2ccc(NC(=O)C3CC(=O)N(Cc4ccco4)C3)cc2s1 (stereo not given)	3.0%	-1.3	i
39	Cc1ccccc1NS(=O)(=O)c1cc(S(C)(=O)=O)ccc1Cl	0.1%	1.4	i
40	CCOc1ccccc1NC(=O)CSc1ncnc2c1oc1ccccc12	-1.9%	0.05	i
41	COCCN1Cc2cccc(C(=O)NCc3ccccn3)c2C1=O	1.6%	0.65	i
42	Fc1cccc(CSc2nc3ncccc3[nH]2)c1	2.1%	/	i
43	Cc1nc(SCC(=O)NC(=O)NCc2ccccc2)nc(C)c1C	-3.7%	/	i
44	CC(C(=O)NCc1cccs1)n1cccc1 (stereo not given)	1.6%	0.22	i
45	Cc1cc(Br)c2c(c1)=C(c1sc(N3CCCCCC3)nc1O)C(=O)N=2	9.8%	-0.95	i

Reprinted, entries 31–37
cpd	structure	Hsc70	WNV NS2B-NS3 inh	MT1-MMP promoter
31	O=C1[C@@H]2CSCN2C(=O)CN1CCc1cccc(F)c1	0.9%	-0.33	i
32	CCCCn1nnnc1SCC(=O)c1ccc(C)c(C)c1	-7.5%	1.4	i
33	CCOC(=O)c1cccnc1SCc1cc(=O)n2ccccc2n1	1.7%	-1.1	i
34	O=C(NCc1ccccc1)C1CCN(S(=O)(=O)c2cccc3cccnc23)CC1	1.6%	-0.21	i
35	Cc1ccc(C(c2sc3nc(C)nn3c2O)N2CCN(C(=O)c3ccco3)CC2)cc1 (stereo not given)	0.3%	-0.87	i
36	COCc1cc(=O)n2[nH]c(C(F)(F)F)nc2n1	2.5%	/	i
37	CCOC(=O)CSc1ncnc2c1nnn2-c1ccc(F)cc1	7.6%	-0.44	i

(listing goes on)
cpd	structure	Hsc70	WNV NS2B-NS3 inh	MT1-MMP promoter
46	O=C(C1CCN(C2CC(=O)N(c3cccc(Cl)c3)C2=O)CC1)N1CCCCCC1 (stereo not given)	3.6%	2.7	i
47	O=C(Nc1ncc(Cc2ccccc2)s1)c1cccs1	-3.5%	-0.99	i
48	CCOc1ccc(N=c2scc(-c3ccc(OC)cc3)n2CCO)cc1	-0.2%	/	i
49	O=C(Nc1ccccc1)c1ccc2c(c1)OCO2	1.7%	/	i
50	NC1CCCCC1N=Cc1c(O)n(CCc2ccc(F)cc2)c(=O)[nH]c1=O (stereo not given)	-6.3%	-1.6	i
51	Cc1nn(-c2ccccc2)c2nc(-c3ccncc3)cc(C(=O)NCc3ccco3)c12	0.2%	-0.14	i
52	CCc1ccc(CNC(=O)CN2C(=O)COc3ccccc32)cc1	-2.3%	1.3	i
53	CCCCCn1c(N)c(-c2nc3ccccc3s2)c2c([N+](=O)[O-])nn(C)c(=O)c21	-4.7%	/	i
54	Nc1nc(CSc2n[nH]c(-c3ccccc3)n2)nc(Nc2ccccc2)n1	-10%	-0.06	i
55	C=CCn1c(NC(=O)c2ccco2)c(S(=O)(=O)c2ccccc2)c2nc3ccccc3nc21	6.9%	0.03	i
56	O=C(COC(=O)C(O)c1ccccc1)NC12CC3CC(CC(C3)C1)C2 (stereo not given)	1.5%	-0.56	i
57	CCC(c1nnnn1C(C)(C)C)N(Cc1ccco1)Cc1cc2cccc(C)c2[nH]c1=O (stereo not given)	8.0%	/	i
58	CCn1c(C2CC(=O)N(Cc3ccccc3)C2)nc2ccccc21 (stereo not given)	1.6%	2.9	i
59	O=C1OCc2cc(NC(=O)C3COc4ccccc4O3)ccc21 (stereo not given)	2.3%	0.82	i
60	CC(=O)NCc1cccc(CNC(C)=O)n1	9.0%	-0.31	i

Remaining list, next part
cpd	structure	Hsc70	WNV NS2B-NS3 inh	MT1-MMP promoter
61	CCOc1ccc(NC2c3ccccc3C(=O)N2Cc2ccco2)cc1 (stereo not given)	-2.2%	0.48	i
62	Cc1cc(C)nc(NC(=O)CSc2ccccn2)n1	4.9%	2	i
63	COCc1cc(C2C(C(=O)c3ccco3)=C(O)C(=O)N2CCOCCO)ccc1O (stereo not given)	7.8%	-0.98	i
64	O=C(CSc1ncc(-c2ccccc2)n1-c1ccccc1)NCc1ccco1	-0.5%	0.07	i
65	CCN(CC)S(=O)(=O)c1ccc(S(=O)(=O)N2CCN(CCC#N)CC2)cc1	-2.3%	0.23	i
66	Cc1ccc(C(=O)CC2(O)C(=O)N(Cc3ccc4c(c3)OCO4)c3ccccc32)cc1 (stereo not given)	-1.5%	-0.5	i
67	Cc1occc1-c1nnc(SCC(=O)c2ccc(F)cc2)n1Cc1ccco1	-1.8%	0.89	i
68	Cc1ccc(N(CC(=O)N2CCc3ccccc32)C2=NC(=O)CS2)cc1	-3.2%	0.32	i
69	CCc1ccc(OC)c(S(=O)(=O)Nc2ccccc2C)c1	1.3%	-0.64	i
70	COc1cc(Cl)cc2c1Sc1ccccc1/C2=C/CCN(C)C	5.5%	/	i
71	CCOC(=O)CSc1nnc(-c2ccncc2)o1	2.9%	-0.34	i
72	COCCN(CCOC)C(=O)c1cc2c(=O)n3ccccc3nc2s1	6.7%	4.3	i
73	c1ccn2c(SCc3ccc4c(c3)OCCO4)nnc2c1	4.1%	-0.42	i
74	CC(C)(C)C(=O)Nc1ccc(S(=O)(=O)c2ccc(NC(=O)C(C)(C)C)cc2)cc1	-0.6%	/	i
75	CCCN1C(=O)NC2(O)C(=O)c3ccccc3C12O (stereo not given)	0.8%	1.6	i

(continued)
cpd	structure	Hsc70	WNV NS2B-NS3 inh	MT1-MMP promoter
76	CCOC(=O)CSC1=C(C#N)C(c2ccccc2OC)CC(=O)N1 (stereo not given)	0.7%	0.54	i
77	CC(C)NC(=O)c1ccccc1NC(=O)CN(c1ccc2c(c1)OCO2)S(C)(=O)=O	6.7%	1.6	i
78	Cc1c(C(=O)Nc2ccc(Oc3ccccc3)cc2)sc2nc3n(c(=O)c12)CCC3	-2.2%	/	i
79	COc1ccc(-n2nnnc2SCC(=O)N2CCOCC2)cc1	0.3%	-0.14	i
80	CS(=O)(=O)N1CCCC(C(=O)NCCCN2CCN(Cc3ccccc3)CC2)C1 (stereo not given)	2.9%	-0.65	i
81	O=C(O)c1ccc(N2CCCCCC2)c(N2C(=O)c3ccccc3C2=O)c1	3.8%	0.1	i
82	Cc1cc(C)c(S(=O)(=O)Nc2ccc(OCC(=O)O)cc2)c(C)c1	0.7%	-0.76	i
83	O=C(N1CCOCC1)N(CCN1CCOCC1)Cc1cccc2ccccc12	-0.2%	/	i
84	NS(=O)(=O)c1ccc(NC(=O)C2CCCN(S(=O)(=O)c3ccc(F)cc3)C2)cc1 (stereo not given)	2.2%	/	i
85	CSc1nc2nc3c(c(=O)n2[nH]1)CCCC3	0.5%	/	i
86	CC1Cc2cc(/C(O)=C3/C(=O)C(=O)N(CCCN(C)C)C3c3ccncc3)ccc2O1 (stereo not given)	4.0%	-0.24	i
87	COc1ccccc1N1CCN(C(c2ccc(N(C)C)cc2)c2nnnn2CCc2ccccc2)CC1 (stereo not given)	-1.8%	/	i
88	CCC12CN(C(=O)c3ccc(OC)cc3)CC(CC)(CN(C(=O)c3ccc(OC)cc3)C1)C2=O	1.8%	0.23	i
89	O=C(c1cccs1)N(Cc1ccco1)Cc1cc2ccccc2[nH]c1=O	0.7%	0.01	i
90	COc1cccc(NC(=O)CSc2nnc(Cn3nnc4ccccc43)n2C)c1	2.7%	/	i

Next section.
cpd	structure	Hsc70	WNV NS2B-NS3 inh	MT1-MMP promoter
91	CCC1(C)Cc2c(sc3c2c(=O)n(C)c2nnc(SCC(=O)c4ccccc4)n32)CO1 (stereo not given)	4.4%	-0.41	i
92	O=C(O)CCc1nnc2n(Cc3ccc(F)cc3)c(=O)c3ccccc3n12	-3.1%	1.3	i
93	Cc1ccc(Nc2nc(N)nc(CN3CCN(C)CC3)n2)cc1	2.2%	0.72	i
94	O=C1CCCCN1CCc1c[nH]c2ccccc12	4.9%	/	i
95	O=C(OCC(F)(F)C(F)F)c1ccccc1C(=O)Oc1ccc(F)cc1F	-2.9%	-0.17	i
96	COc1ccc(-c2cc(C(F)(F)F)nc(N3CCOCC3)n2)cc1OC	3.0%	-0.9	i
97	O=C(NCCc1ccccc1)c1ccc2c(c1)N(Cc1ccccc1)C(=O)CS2=O (stereo not given)	-1.8%	-0.07	i
98	CCOc1ccc(-c2nnn(CC(=O)NCc3ccc(OC)cc3)n2)cc1OCC	1.0%	-0.05	i
99	CCn1cc(Br)c(-c2nc3ccccc3c(=O)n2N)n1	-4.7%	0.38	i
100	CCOC(=O)c1cc2sc(C)cc2n1CCCN1C(=O)c2ccccc2C1=O	-3.7%	/	i
101	CC(=O)c1cccc(NC(=O)N2CCCC2C(=O)NC2CCCCC2)c1 (stereo not given)	6.6%	-0.6	i
102	CC(C)NC(=O)CCS(=O)(=O)c1cccc2nonc12	5.1%	/	i
103	CCOC(=O)c1ccc2c(c1)N(CC(=O)N1CCCCC1)C(=O)C(C)(C)O2	-1.8%	/	i
104	COc1ccc(N2CCN(Cc3nc4c(c(=O)n(C)c(=O)n4C)n3CC(C)=O)CC2)cc1	-0.3%	/	i
105	O=C(CSc1nnc(CN2CCOCC2)n1-c1ccccc1)N1CCc2ccccc21	-0.2%	0.55	i
106	Cc1ccc(CSc2nnc(-c3ccco3)o2)cc1	2.6%	/	i
107	O=C(CSc1nnnn1-c1ccc(Cl)cc1)NC(=O)Nc1ccc2c(c1)OCCO2	0.4%	-0.33	i
108	COc1cccc(C2NC(=O)NC(C)=C2C(=O)Nc2ccccc2C)c1 (stereo not given)	3.2%	0.24	i

Source: PubChem BioAssay (several laboratories)

This is a random part of the collection; any-hit rate near 0.8%.
